NPYLR7 ag – agonists of mosquito NPYLR7 receptor, primary screen, cell-based, Aedes aegypti, calcium fluorescence, mosquito biting behavior; HEK293T NPYLR7/Galpha15, GCaMP6s calcium fluorescence; activation, % at 10 µM; actives 0.15% (n = 270,000); AID 1259423, 2018; in the data active = activation above about 40%;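 also: 0% = vehicle and 100% = reference agonist at the receptor; some compounds past the cut are filed as inactive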
NPYLR7 ag max-min – recorded beside NPYLR7 ag, whose call it bears; activation, %; measured here: Max-Min RFU normalised activation; some inactives read as strong as hits;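 span of the calcium signal over five minutes; 0% = vehicle and 100% = native peptide agonist; compound fluorescence can raise it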
* marks the source's active call; other numbers are inactive results. Only part of the results is shown; rates above refer to the full screens.

What do the screens show for `Cc1ccc(C)c(-n2c(C)cn3c4c(=O)n(CCCO)c(=O)n(C)c4nc23)c1`?
NPYLR7 ag: 4; NPYLR7 ag max-min: 2

Results for C=CCn1c(SCC(=O)N2CCOCC2)nnc1-c1cccc(C)c1 ?
NPYLR7 ag: -2; NPYLR7 ag max-min: 5

How did C=CCn1c(SCc2ccc(Br)cc2)nnc1-c1ccc(F)cc1 do in these assays?
NPYLR7 ag: 0; NPYLR7 ag max-min: 8

How did CN1CCN(C(=O)[C@H]2CSC(c3ccccc3)N2)CC1 (stereo partly drawn) do in these assays?
NPYLR7 ag: -1; NPYLR7 ag max-min: 1

How did O=C1c2ccccc2C(=O)c2c([N+](=O)[O-])ccc(Cl)c21 do in these assays?
NPYLR7 ag: -1; NPYLR7 ag max-min: -10

Results for O=C(NCCCCOc1ccc(Cl)cc1)N1CCN(S(=O)(=O)c2ccc([N+](=O)[O-])cc2)CC1 ?
NPYLR7 ag: 5; NPYLR7 ag max-min: 0

Results for COc1ccc(/C=C2/SC(=S)N(CC(=O)O)C2=O)c(OC)c1OC ?
NPYLR7 ag: 1; NPYLR7 ag max-min: 0

Results for CCNC(=S)N(Cc1c(-c2ccccc2)noc1N1CCc2ccccc2C1)CC1CCCO1 (stereo not drawn) ?
NPYLR7 ag: 3; NPYLR7 ag max-min: 2

How did CC(=O)c1c(C)oc2ccc(N(C(C)=O)S(=O)(=O)c3cc(C)ccc3C)cc12 do in these assays?
NPYLR7 ag: 0; NPYLR7 ag max-min: -2

What do the screens show for `CS(=O)(=O)N=C1C=C(S(=O)(=O)c2ccccc2)C(=O)c2ccccc21`?
NPYLR7 ag: 2; NPYLR7 ag max-min: 1

Results for O=C(CSc1ccccc1)N1CCCC(Nc2ccc(F)cc2)C1 (stereo not drawn) ?
NPYLR7 ag: -1; NPYLR7 ag max-min: -2

Results for Cc1cc(=O)[nH]c(C)c1NC(=O)c1cccc(CN2CCN(CCO)CC2)c1 ?
NPYLR7 ag: 2; NPYLR7 ag max-min: 0

How did COc1cccc(C2NC(=O)NC3=C2C(=O)OC3)c1OC (stereo not drawn) do in these assays?
NPYLR7 ag: 2; NPYLR7 ag max-min: -20

How did O=[N+]([O-])c1ccc(CSc2ccc3nnc(CCNS(=O)(=O)c4ccccc4)n3n2)cc1 do in these assays?
NPYLR7 ag: 9; NPYLR7 ag max-min: -3

How did CCOC(=O)c1c(N=Cc2c(O)[nH]c(=S)[nH]c2=O)sc(C)c1-c1cccs1 do in these assays?
NPYLR7 ag: 10; NPYLR7 ag max-min: 12

What do the screens show for `COc1cccc(C(=O)N(CCN(C)C)Cc2nccn2Cc2ccccc2C(F)(F)F)c1`?
NPYLR7 ag: 2; NPYLR7 ag max-min: 10

How did CCOCCNc1ccc2cc(Br)c(F)cc2n1 do in these assays?
NPYLR7 ag: 8; NPYLR7 ag max-min: 7

What do the screens show for `CCN(CC)c1c(C)nc2ccc(C(=O)NCCC(C)C)cn12`?
NPYLR7 ag: -7; NPYLR7 ag max-min: -10

Results for CN(C)c1ccc(NC(=O)CC(C)(C)C)cc1CN(C(=O)c1ccco1)C1CC1 ?
NPYLR7 ag: 5; NPYLR7 ag max-min: 9

What do the screens show for `CCOC(=O)C1CCN(c2cc(-c3nc(-c4ccccc4)no3)c3ccccc3n2)CC1`?
NPYLR7 ag: 0; NPYLR7 ag max-min: 8

What do the screens show for `Cc1cc(-n2c(C)nc3ccccc3c2=O)ccc1NC(=O)Nc1cc(F)ccc1F`?
NPYLR7 ag: -9; NPYLR7 ag max-min: -10

What do the screens show for `N#CC1C(=N)SC(=N)C(C#N)C1c1cccc(Cl)c1Cl` (stereo not drawn)?
NPYLR7 ag: 14; NPYLR7 ag max-min: 9

How did O=C(Nc1cnc2n1CCCC2)c1cc(-c2ccccc2)on1 do in these assays?
NPYLR7 ag: 0; NPYLR7 ag max-min: -1

What do the screens show for `CC(O)c1cccc(OCc2csc(C3CCCC3)n2)c1` (stereo not drawn)?
NPYLR7 ag: 7; NPYLR7 ag max-min: 5

Results for COCCCNC(=O)c1cnc2c(-c3ccc(OC)cc3)cnn2c1C ?
NPYLR7 ag: 10; NPYLR7 ag max-min: -2

What do the screens show for `Cc1oc(-c2ccco2)nc1CN(C)CC1COc2ccccc2O1` (stereo not drawn)?
NPYLR7 ag: 21; NPYLR7 ag max-min: 11

How did CCc1ccc(CN2CCC(n3nccc3NC(=O)Nc3ccccc3Cl)CC2)cc1 do in these assays?
NPYLR7 ag: -1; NPYLR7 ag max-min: -3

What do the screens show for `CNC(=O)NC(=O)C(C)N1CCN(C(C)c2nc(Cc3ccccc3)no2)CC1` (stereo not drawn)?
NPYLR7 ag: -1; NPYLR7 ag max-min: -2

How did CCC(CC)c1nc2cc3c(cc2[nH]1)OCCO3 do in these assays?
NPYLR7 ag: 1; NPYLR7 ag max-min: 0

How did C=CCNC(=S)N1CCc2cc(OC)c(OC)cc2C1CNC(=O)Nc1ccc(C)cc1 (stereo not drawn) do in these assays?
NPYLR7 ag: 17; NPYLR7 ag max-min: 13

How did O=C(O)c1nn(-c2cccc(F)c2)c(=O)n(Cc2cccc(Cl)c2)c1=O do in these assays?
NPYLR7 ag: 17; NPYLR7 ag max-min: 26

What do the screens show for `O=C(/C=C/c1ccc(OC(F)(F)F)cc1)N[C@H](Cc1ccccc1)C(=O)N1CCC(C(=O)N2CCOCC2)CC1`?
NPYLR7 ag: -4; NPYLR7 ag max-min: 12

What do the screens show for `Cc1ccc2nc(NC3=NCN(C(C)C)CN3)nc(C)c2c1`?
NPYLR7 ag: 6; NPYLR7 ag max-min: 2

How did COc1cccc(C(=O)N2CCN(S(=O)(=O)NCc3ccccc3)CC2)c1 do in these assays?
NPYLR7 ag: 1; NPYLR7 ag max-min: 1

Results for COc1ccc(CC2(CCC(=O)N3CCCC(C(=O)c4ccccc4)C3)CCC(=O)N2)cc1OC (stereo not drawn) ?
NPYLR7 ag: 22; NPYLR7 ag max-min: 8

What do the screens show for `COc1ccc(OC)c(SCc2ccc(C(=O)N3C4CCC3CC(Oc3ccc5c(c3)OCO5)C4)cc2)c1` (stereo not drawn)?
NPYLR7 ag: 17; NPYLR7 ag max-min: 8

Results for COc1c(C)cc(C(=O)C2CCCN(Cc3ccc(C#CC(C)(C)O)cc3)C2)cc1C (stereo not drawn) ?
NPYLR7 ag: 5; NPYLR7 ag max-min: 2

What do the screens show for `CC(C)CN(CC(=O)Nc1cc(-c2ccccc2)nn1-c1ccccc1Cl)S(=O)(=O)c1ccc(Br)cc1`?
NPYLR7 ag: 19; NPYLR7 ag max-min: 18

How did CCCC(C)c1cc(NS(=O)(=O)c2ccccc2F)n[nH]1 (stereo not drawn) do in these assays?
NPYLR7 ag: -8; NPYLR7 ag max-min: -11

How did Cc1[nH]c2[nH]c(=O)c3ccccc3c2c(=O)c1C1CCS(=O)(=O)C1 (stereo not drawn) do in these assays?
NPYLR7 ag: 16; NPYLR7 ag max-min: 16

Sorted by SMILES length (high to low): 3 of the compounds above
What do the screens show for `CC(C)CN(CC(=O)Nc1cc(-c2ccccc2)nn1-c1ccccc1Cl)S(=O)(=O)c1ccc(Br)cc1`?
NPYLR7 ag: 19; NPYLR7 ag max-min: 18

How did Cc1[nH]c2[nH]c(=O)c3ccccc3c2c(=O)c1C1CCS(=O)(=O)C1 (stereo not drawn) do in these assays?
NPYLR7 ag: 16; NPYLR7 ag max-min: 16

How did COc1cccc(C(=O)N2CCN(S(=O)(=O)NCc3ccccc3)CC2)c1 do in these assays?
NPYLR7 ag: 1; NPYLR7 ag max-min: 1

The listing picks up with the six entries that preceded the break.
Results for COc1ccc(CC2(CCC(=O)N3CCCC(C(=O)c4ccccc4)C3)CCC(=O)N2)cc1OC (stereo not drawn) ?
NPYLR7 ag: 22; NPYLR7 ag max-min: 8

What do the screens show for `COc1ccc(OC)c(SCc2ccc(C(=O)N3C4CCC3CC(Oc3ccc5c(c3)OCO5)C4)cc2)c1` (stereo not drawn)?
NPYLR7 ag: 17; NPYLR7 ag max-min: 8

Results for COc1c(C)cc(C(=O)C2CCCN(Cc3ccc(C#CC(C)(C)O)cc3)C2)cc1C (stereo not drawn) ?
NPYLR7 ag: 5; NPYLR7 ag max-min: 2

What do the screens show for `CC(C)CN(CC(=O)Nc1cc(-c2ccccc2)nn1-c1ccccc1Cl)S(=O)(=O)c1ccc(Br)cc1`?
NPYLR7 ag: 19; NPYLR7 ag max-min: 18

How did CCCC(C)c1cc(NS(=O)(=O)c2ccccc2F)n[nH]1 (stereo not drawn) do in these assays?
NPYLR7 ag: -8; NPYLR7 ag max-min: -11

How did Cc1[nH]c2[nH]c(=O)c3ccccc3c2c(=O)c1C1CCS(=O)(=O)C1 (stereo not drawn) do in these assays?
NPYLR7 ag: 16; NPYLR7 ag max-min: 16

How did Cc1csc(SCC(=O)N2CCC3(CC2)NCCNC3=O)n1 do in these assays?
NPYLR7 ag: 4; NPYLR7 ag max-min: -4

What do the screens show for `Cc1cccnc1CN1CCN(Cc2nc(CCc3ccccc3)no2)CC1`?
NPYLR7 ag: 3; NPYLR7 ag max-min: 3

How did Cc1cccnc1C1=NOC(C)C(=O)N1Cc1cccc(F)c1 (stereo not drawn) do in these assays?
NPYLR7 ag: 8; NPYLR7 ag max-min: 4

How did O=C(Nc1ccc(SCc2ccc(F)cc2)nn1)c1ccco1 do in these assays?
NPYLR7 ag: 9; NPYLR7 ag max-min: -2

How did Cc1ccc(-n2nnnc2CN2CCN(C(=O)C3CC3)CC2)cc1 do in these assays?
NPYLR7 ag: 0; NPYLR7 ag max-min: -1

What do the screens show for `CCc1ccc(-n2c(C(CC)N(Cc3ccccc3)C(=O)Nc3cccc(C(F)(F)F)c3)nc3ccccc3c2=O)cc1` (stereo not drawn)?
NPYLR7 ag: 18; NPYLR7 ag max-min: 27

How did Cc1ccc(-c2cc(O)c3c(c2)CN(Cc2ccoc2)CCO3)s1 do in these assays?
NPYLR7 ag: 7; NPYLR7 ag max-min: 6

How did O=C1Oc2ccccc2C(=O)C1=CN1CCc2ccccc21 do in these assays?
NPYLR7 ag: 2; NPYLR7 ag max-min: 1

Results for Cc1noc(C)c1COc1ccc(-c2ccc(I)cc2)cc1 ?
NPYLR7 ag: 9; NPYLR7 ag max-min: 8

What do the screens show for `COc1cc(NC(=O)c2cnn3c2NC(c2ccc(F)cc2)CC3C(F)(F)F)cc([N+](=O)[O-])c1` (stereo not drawn)?
NPYLR7 ag: 2; NPYLR7 ag max-min: -2

Results for Cc1cc2cc(CCNC(=O)C3c4ccccc4Oc4ccccc43)c(=O)[nH]c2cc1C ?
NPYLR7 ag: -1; NPYLR7 ag max-min: 41

How did CCN(CC1CCN(CCc2ccccc2C)CC1)C(=O)c1cnc2ccccn2c1=O do in these assays?
NPYLR7 ag: 8; NPYLR7 ag max-min: 4

What do the screens show for `CSCC(C(=O)NNC(=O)C12CC3CC(CC(C3)C1)C2)N1C(=O)C2CCCCC2C1=O` (stereo not drawn)?
NPYLR7 ag: -6; NPYLR7 ag max-min: -12

Results for CCN(CC)C(=S)SCc1ncc(-c2ccccc2)o1 ?
NPYLR7 ag: 6; NPYLR7 ag max-min: 5

What do the screens show for `CCC(C(=O)N1CCC2(CC1)SCCN2C(=O)c1ccc(C)cc1)c1ccccc1` (stereo not drawn)?
NPYLR7 ag: -15; NPYLR7 ag max-min: -11

What do the screens show for `Cc1ccc(-n2ncc3c(-n4nc(C)cc4NC(=O)c4ccccc4)ncnc32)c(C)c1`?
NPYLR7 ag: 7; NPYLR7 ag max-min: 7

What do the screens show for `CN(Cc1ccc2ccccc2n1)C(=O)c1ccc(N(C)C)nc1`?
NPYLR7 ag: 6; NPYLR7 ag max-min: 3

Results for COc1ccc(CC(=O)NNC(=O)c2ccc(=O)n(Cc3ccc(Cl)cc3)c2)cc1 ?
NPYLR7 ag: -12; NPYLR7 ag max-min: -18

Results for CCN(CC)c1cc(Cl)nc(SCc2ccc(C(=O)N3CCN(C/C=C/c4ccccc4)CC3)cc2)n1 ?
NPYLR7 ag: 16; NPYLR7 ag max-min: 20

Results for FC(F)(F)c1ccc(N2CCN(Cc3cn4ccccc4n3)CC2)nc1 ?
NPYLR7 ag: 1; NPYLR7 ag max-min: 0

What do the screens show for `O=C(CCc1ccccc1)NC1CCN(c2ccccc2C(=O)N2CCCC2)CC1`?
NPYLR7 ag: -5; NPYLR7 ag max-min: -3

How did CC(C)CNc1ccc2c(n1)C(=O)N([C@H](C)C(=O)Nc1ccc3c(c1)OCO3)C2 do in these assays?
NPYLR7 ag: 6; NPYLR7 ag max-min: 3

What do the screens show for `Cc1nn(-c2ccc(F)cc2)cc1CNC(=O)C(NC(N)=O)C(C)C` (stereo not drawn)?
NPYLR7 ag: 24; NPYLR7 ag max-min: 18

What do the screens show for `Cn1cc(S(=O)(=O)NCC(c2ccccc2Cl)N2CCOCC2)cn1` (stereo not drawn)?
NPYLR7 ag: 9; NPYLR7 ag max-min: 2

How did CC(C)COC(=O)CSc1n[nH]c(=O)[nH]c1=O do in these assays?
NPYLR7 ag: -1; NPYLR7 ag max-min: -4

How did CC1CCc2cc(F)ccc2N1C(=O)C12CCC(c3nc(C#N)c(C#N)nc31)C2(C)C (stereo not drawn) do in these assays?
NPYLR7 ag: 6; NPYLR7 ag max-min: 3

How did CN(C)S(=O)(=O)c1ccc2c(c1)CCN2Cn1ncn(C)c1=S do in these assays?
NPYLR7 ag: -4; NPYLR7 ag max-min: -2
